Bioassay records: PubChem BioAssay, several laboratories
LANA-H2B inh – blocks KSHV LANA binding to histone H2A/H2B; cell-free LANA-H2A/H2B peptide, fluorescence polarization; inhibition, % (concentration not given with the values); 0.6% of 320,000 active; in the data active means inhibition mostly above about 10%, no sharp cut-off; inactive means mostly below about 6.7%;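 further: stock transfer was 7.5 nL into about 10 µL; 0% = median of vehicle wells and 100% = median of positive control wells; one replicate is shown; the record names a cut of 25% in any replicate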
Target sequence (Q9QR71 whole entry, looked up): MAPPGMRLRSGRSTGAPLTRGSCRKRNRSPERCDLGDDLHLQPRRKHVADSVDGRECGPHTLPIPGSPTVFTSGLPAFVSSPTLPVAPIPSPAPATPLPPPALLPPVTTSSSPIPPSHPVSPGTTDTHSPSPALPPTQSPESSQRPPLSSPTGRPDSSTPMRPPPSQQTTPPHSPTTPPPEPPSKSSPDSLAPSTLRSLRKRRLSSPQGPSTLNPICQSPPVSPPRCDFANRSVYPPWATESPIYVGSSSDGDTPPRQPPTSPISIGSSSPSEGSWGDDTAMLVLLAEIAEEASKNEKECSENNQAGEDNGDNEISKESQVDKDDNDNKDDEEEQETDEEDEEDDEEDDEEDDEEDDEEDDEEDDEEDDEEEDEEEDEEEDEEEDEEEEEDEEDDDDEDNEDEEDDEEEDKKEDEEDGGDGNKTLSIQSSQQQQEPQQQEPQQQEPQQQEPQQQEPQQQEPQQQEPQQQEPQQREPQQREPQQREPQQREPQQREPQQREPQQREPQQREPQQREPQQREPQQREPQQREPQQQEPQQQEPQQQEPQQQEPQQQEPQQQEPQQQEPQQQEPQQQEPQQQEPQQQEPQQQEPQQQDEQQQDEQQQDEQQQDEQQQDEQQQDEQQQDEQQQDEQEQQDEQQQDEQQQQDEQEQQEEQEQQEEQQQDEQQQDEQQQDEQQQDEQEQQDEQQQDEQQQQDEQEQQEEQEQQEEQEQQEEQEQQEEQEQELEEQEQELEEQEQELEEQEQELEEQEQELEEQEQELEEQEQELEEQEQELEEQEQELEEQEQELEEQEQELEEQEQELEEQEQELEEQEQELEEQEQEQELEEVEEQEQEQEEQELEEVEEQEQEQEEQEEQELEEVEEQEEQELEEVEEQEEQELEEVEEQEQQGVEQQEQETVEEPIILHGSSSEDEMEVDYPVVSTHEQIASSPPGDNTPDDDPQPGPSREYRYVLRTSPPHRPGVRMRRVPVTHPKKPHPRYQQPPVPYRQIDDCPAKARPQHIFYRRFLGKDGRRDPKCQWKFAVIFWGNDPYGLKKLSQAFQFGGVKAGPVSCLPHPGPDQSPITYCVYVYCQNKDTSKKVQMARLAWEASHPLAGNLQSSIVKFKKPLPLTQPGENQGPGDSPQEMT
Bfl-1 A1 inh – inhibitors of the anti-apoptotic protein A1, read as caspase activation; MEF A1-2A-BIM cells, Caspase-Glo 3/7 luminescence, 3 h; percent of clofoctol response, vehicle zero; caspase activation, % (no concentration beside the values); 0.066% of 330,000 active;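 active means over half of replicate activation scores above 10%, or exactly half above 10 with the replicate mean above 10; inconclusive means replicate mean below 10 yet half the replicates above 10; inactive means over half of replicates below 10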;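 further: wells of about 30 µL received 50 nL stock; many hits fall short of the cut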
E coli growth – E. coli growth inhibition | AID 1053175 | 0.21% of 330,000 active | Escherichia coli growth, OD600, 23 h; stronger effect = lower value | OD600 absorbance (test concentration not listed);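 active means OD600 absorbance below the run mean of sample wells minus 3.6 SD, in any replicate, cut at about 0.56 in these data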;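 further: stock transfer was 300 nL into about 60 µL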
Vif A3G – HIV-1 Vif–A3G interaction blockers – biochemical, TR-FRET, GST-Vif 1-94, biotin-A3G peptide, dose response retest, primary screen (AID 1117319); TR-FRET GST-Vif / biotin-A3G peptide binding; higher % means a stronger effect; test concentration not given here; strong numbers were not always called active; inhibition, %; hits with a dose series show IC50 in µM; 0.57% of 260,000 active;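 active means above the screen mean plus three standard deviations and confirmed in dose response; inconclusive means results disagree or hit not tested in dose response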;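 further: Vif residues 1-94 fused to GST binding biotinylated APOBEC3G peptide 110-148; 0% = full assay without inhibitor and 100% = GST in place of GST-Vif; retest series ran down from 100 µM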
UCH37 DUB inh – human UCH37 deubiquitinating enzyme inhibition; Q9Y5K5; purified proteasome/UCH37, Ub-AMC cleavage fluorescence; inhibition, % (test concentration not listed); 0.33% of 330,000 active;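 active means mean of two replicates above 20%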;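 further: 0% = compound-free wells with enzyme and 100% = wells lacking proteasome; stock transfer was 100 nL into about 20 µL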
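system = Proteasome-associated human UCH37 deubiquitinase | amount = 0.15 nM proteasome as dispensed | medium = pH 7.4 Tris-HCl (50 mM) with ovalbumin, ATP-MgCl2, DTT | incubation = 30 min preincubation with enzyme, 25 min cleavage at room temperature | detection = AMC fluorescence 355/460 nm | read-out basis = percent inhibition | controls = no-proteasome and no-compound wells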
B2AR ag – agonists of human beta-2 adrenergic receptor inducing internalization; P07550; 0.43% of 340,000 active; response, % (concentration not given with the values); Am2.2-beta2AR cells, FAP receptor internalization, flow cytometry; reference of the scale not given here; AID 504454;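 active means response above a set limit, near 3 SD of response in nonfluorescent compounds, cut at about 42% in these data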;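 further: stock transfer was 100 nL into about 11 µL; a reference agonist was the positive control; negative values mostly stem from fluorescent compounds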
HNF4A DNA FP – change in binding of human HNF4 alpha to DNA | activity change, % at 10 µM | 0.3% of 360,000 active | HNF4a-FITC DNA binding, fluorescence polarization, 1 h; in the data active means activity change above about 30%, passing the limit was not always enough;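 further: controls were the assay level and a saturating level of protein; the project sought stronger binding though the title names inhibitors; some compounds called inactive have numbers as strong as hits; positive values seem to mean higher polarization but the record does not say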
Starred values were filed as active, the others as inactive; & = joins results of further samples.

CCN1CCN(C(=S)c2ccc(Cl)cc2)CC1 was read as LANA-H2B inh 3.5, Bfl-1 A1 inh 1.4, E coli growth 0.685, Vif A3G -8.6%, UCH37 DUB inh 4.7, B2AR ag -3.2 and HNF4A DNA FP 0.7.
`Cc1cc2oc(C(=O)NC3CCS(=O)(=O)C3)c(C)c2cc1C` (stereo unspecified) gave LANA-H2B inh 4.3, Bfl-1 A1 inh 0.4, E coli growth 0.767, Vif A3G -0.9%, UCH37 DUB inh 2.4, B2AR ag -2.6 and HNF4A DNA FP -3.2.
CCN(CC)S(=O)(=O)c1ccc2c(c1)N(CC(=O)NCCN1CCOCC1)C(=O)CO2 was read as E coli growth 0.675, UCH37 DUB inh -0.2, B2AR ag 2.2 and HNF4A DNA FP 3.4.
For CCCCNC(=O)Nc1nnc(-c2ccc(Cl)cc2)o1 the results were LANA-H2B inh -0.1, Bfl-1 A1 inh -0.6, E coli growth 0.692, Vif A3G -5.1%, UCH37 DUB inh -2.5, B2AR ag 3.1 and HNF4A DNA FP -1.8.
For COc1ccccc1NC(=O)c1ccc[n+]([O-])c1 the results were LANA-H2B inh 1.4, Bfl-1 A1 inh 0.2, E coli growth 0.659, Vif A3G -8.9%, UCH37 DUB inh 2.9, B2AR ag 10.9 and HNF4A DNA FP 6.0.
Cc1ccnc(NC(=O)CCC(=O)N(CC(=O)NC2CCCCC2)Cc2ccccc2)c1 was read as LANA-H2B inh -1.5, Bfl-1 A1 inh -0.2, E coli growth 0.684, Vif A3G -4.3%, UCH37 DUB inh 0.5, B2AR ag 0.2 and HNF4A DNA FP 4.2.
`CSc1ccc(S(=O)(=O)NCCCOC(C)C)cc1` gave LANA-H2B inh 6.3, Bfl-1 A1 inh 0.4, E coli growth 0.715, Vif A3G inconclusive, UCH37 DUB inh 1.7, B2AR ag -1.2 and HNF4A DNA FP -1.0.
`COc1ccc(C(C)(C)C)cc1NC(=O)c1cncc(Br)c1` gave LANA-H2B inh 1.2, Bfl-1 A1 inh 0.1, E coli growth 0.761, Vif A3G -9.5%, UCH37 DUB inh 1.2, B2AR ag 1.4 and HNF4A DNA FP -0.2.
`Cc1ccc(OCc2ccc(C(=O)N3CCOCC3)cc2)cc1C` gave LANA-H2B inh -0.3, Bfl-1 A1 inh -6.8, E coli growth 0.618, Vif A3G 19.6%, UCH37 DUB inh 1.9, B2AR ag -12.3 and HNF4A DNA FP 2.1.
COc1cc2c(cc1OC)C(C(N)=O)NCC2 (stereo unspecified) was read as Vif A3G -8.1%, B2AR ag 0.0 and HNF4A DNA FP -3.8.

For reference, 2 of the compounds above.
`Cc1ccc(OCc2ccc(C(=O)N3CCOCC3)cc2)cc1C` gave LANA-H2B inh -0.3, Bfl-1 A1 inh -6.8, E coli growth 0.618, Vif A3G 19.6%, UCH37 DUB inh 1.9, B2AR ag -12.3 and HNF4A DNA FP 2.1.
COc1cc2c(cc1OC)C(C(N)=O)NCC2 (stereo unspecified) was read as Vif A3G -8.1%, B2AR ag 0.0 and HNF4A DNA FP -3.8.

(more compounds)
Screening Cc1ccc(C)c(SCC(=O)NNC(=O)c2csc(N3CCOCC3)n2)c1 returned LANA-H2B inh -4.5, Bfl-1 A1 inh 2.4, E coli growth 0.702, Vif A3G 0.3%, UCH37 DUB inh 0.5, B2AR ag -5.9 and HNF4A DNA FP -2.2.
`N#CCC1c2ccccc2CCN1C(=O)Nc1ccc(C(F)(F)F)cc1` (stereo unspecified) gave LANA-H2B inh -0.9, Bfl-1 A1 inh 1.6, E coli growth 0.69, Vif A3G 5.2%, UCH37 DUB inh 4.8, B2AR ag -12.3 and HNF4A DNA FP -1.6.
c1ccc(-c2cn(-c3ccccc3)c3[n+]2CCCS3)cc1 was read as LANA-H2B inh 1.3, Bfl-1 A1 inh 0.1, E coli growth 0.68, Vif A3G 0.7%, UCH37 DUB inh 7.7, B2AR ag -4.1 and HNF4A DNA FP 0.1.
`Brc1ccc(-c2nnc(-c3ccc4c(c3)OCO4)o2)o1` gave LANA-H2B inh 2.6, Bfl-1 A1 inh -0.6, E coli growth 0.671, Vif A3G -0.8%, UCH37 DUB inh -10.6, B2AR ag 0.2 and HNF4A DNA FP 1.0.
For COc1ccc(OC)c(C(=O)COC(=O)COc2ccccc2)c1 the results were LANA-H2B inh 2.6, Bfl-1 A1 inh -0.4, E coli growth 0.687, Vif A3G -1.3%, UCH37 DUB inh -0.6, B2AR ag -0.4 and HNF4A DNA FP -0.6.
For CCC(C)(C)C(=O)O the results were LANA-H2B inh -1.0, Bfl-1 A1 inh -0.4, E coli growth 0.654, UCH37 DUB inh 0.1, B2AR ag -3.8 and HNF4A DNA FP 4.8.
CC(C)c1ccccc1NC(=S)N1CCN(S(=O)(=O)c2cccs2)CC1 was read as LANA-H2B inh -1.6, Bfl-1 A1 inh -0.4, E coli growth 0.687, Vif A3G 4.8%, UCH37 DUB inh 4.9, B2AR ag -3.4 and HNF4A DNA FP -3.0.
For O=C(c1ccccc1Cl)N1CCC(n2cccc2)CC1 the results were LANA-H2B inh -2.5, Bfl-1 A1 inh -0.1, E coli growth 0.667, UCH37 DUB inh 2.5, B2AR ag -5.1 and HNF4A DNA FP 5.8.
For CC(=O)c1ccc(S(=O)(=O)NC2CC2)cc1 the results were LANA-H2B inh 5.8, Bfl-1 A1 inh -0.1, E coli growth 0.652, UCH37 DUB inh 0.9, B2AR ag -1.0 and HNF4A DNA FP 25.8.
Screening CCc1cccc(CC)c1NC(=O)Cn1c(-c2ccc(F)cc2)noc1=O returned LANA-H2B inh -2.2, Bfl-1 A1 inh -0.9, E coli growth 0.652, Vif A3G -5.4%, UCH37 DUB inh 3.8, B2AR ag 2.8 and HNF4A DNA FP -0.2.
Cc1ccc(Sc2oc(/C=N/n3cnnc3)cc2Br)cc1 was read as LANA-H2B inh 5.0, Bfl-1 A1 inh 0.2, Vif A3G 2.7%, B2AR ag -15.2 and HNF4A DNA FP 3.9.
`Cc1ccc2nccc(C(=O)N3CCCC(Nc4ccc(F)cc4)C3)c2c1` (stereo unspecified) gave LANA-H2B inh 3.1, Bfl-1 A1 inh 0.7, E coli growth 0.696, UCH37 DUB inh -0.2, B2AR ag -0.2 and HNF4A DNA FP -5.1.
For CCOC(=O)CN1NC2(CCC(C)CC2)NC1=S (stereo unspecified) the results were LANA-H2B inh 3.1, Bfl-1 A1 inh 0.3, E coli growth 0.708, Vif A3G -1.3%, UCH37 DUB inh 0.9, B2AR ag -2.3 and HNF4A DNA FP -8.5.
Screening CC(=O)Nc1ccc(S(=O)(=O)N(Cc2ccccc2)c2ccccc2)cc1 returned LANA-H2B inh 0.1, Bfl-1 A1 inh 0.6, E coli growth 0.686, Vif A3G 13.4%, UCH37 DUB inh 4.3, B2AR ag -8.3 and HNF4A DNA FP -0.9.
Screening Cc1cccc(CCNC(=O)c2nnc(Cc3ccc(Cl)cc3)o2)c1 returned LANA-H2B inh -1.2, Bfl-1 A1 inh -0.7, E coli growth 0.717, Vif A3G 3.5%, UCH37 DUB inh 5.9, B2AR ag 2.1 and HNF4A DNA FP -2.6.
Screening COc1ccc(NC(=O)c2cccc(NC(=O)C3C4CC5OC(=O)C3C5C4)c2)c(OC)c1 (stereo unspecified) returned LANA-H2B inh 0.1, Bfl-1 A1 inh -0.3, E coli growth 0.709, Vif A3G -0.5%&-7.3%, UCH37 DUB inh 2.0, B2AR ag 2.5 and HNF4A DNA FP 0.5.
For COc1ccc(/C(N)=N/OC(=O)CCCc2ccccc2)cc1OC the results were LANA-H2B inh 9.6, Bfl-1 A1 inh -0.6, E coli growth 0.679, Vif A3G -21.9%, UCH37 DUB inh 3.2, B2AR ag 1.3 and HNF4A DNA FP 0.0.
COc1ccc(C(=O)NCC(=O)OCC(=O)NCc2ccco2)cc1 was read as LANA-H2B inh -2.7, Bfl-1 A1 inh 1.1, E coli growth 0.692, UCH37 DUB inh -2.2, B2AR ag 1.8 and HNF4A DNA FP -7.3.
C/C(CC(=O)NC1CCCCCC1)=N\NC(=O)c1cnccn1 was read as Bfl-1 A1 inh -0.7, Vif A3G -2.1%, B2AR ag -1.5 and HNF4A DNA FP 1.8.
O=C(COC(=O)CCCOc1ccc(Cl)cc1Cl)NCc1ccc(F)cc1 was read as LANA-H2B inh 5.6, Bfl-1 A1 inh -0.2, E coli growth 0.657, Vif A3G 15.7%, UCH37 DUB inh 1.7, B2AR ag 5.7 and HNF4A DNA FP -4.5.
For Cc1cc(C)c(S(=O)(=O)N2CCN=C2c2ccccc2)cc1C the results were LANA-H2B inh -4.6, Bfl-1 A1 inh 1.5, E coli growth 0.685, Vif A3G 13.4%, UCH37 DUB inh 1.2, B2AR ag 10.0 and HNF4A DNA FP -0.7.
Screening CCN(CC)C(=O)c1cc(C(C)(C)C)c(O)c(C(C)(C)C)c1 returned LANA-H2B inh 2.2, Bfl-1 A1 inh 2.8, E coli growth 0.638, Vif A3G -2.4%, UCH37 DUB inh 2.3, B2AR ag -8.5 and HNF4A DNA FP 2.3.
For CCc1ccccc1OCC(=O)N(CC)CC(=O)NCc1ccc(F)cc1 the results were LANA-H2B inh -3.4, Bfl-1 A1 inh -0.3, E coli growth 0.687, Vif A3G 13.7%, UCH37 DUB inh 1.6, B2AR ag -1.4 and HNF4A DNA FP 0.2.
`O=C(COC(=O)c1ccc(NS(=O)(=O)c2ccc3c(c2)OCCO3)cc1)NCC1CCCO1` (stereo unspecified) gave LANA-H2B inh 3.6, Bfl-1 A1 inh 1.0, E coli growth 0.7, Vif A3G -3.2%, UCH37 DUB inh 1.9, B2AR ag -1.8 and HNF4A DNA FP 5.5.
O=C(Nc1nnc(S(=O)(=O)N2CCCCCC2)s1)c1ccccc1F was read as LANA-H2B inh -0.9, Bfl-1 A1 inh -0.9, E coli growth 0.708, UCH37 DUB inh 4.3, B2AR ag 9.3 and HNF4A DNA FP 3.7.
Screening CC(=O)N1c2ccc(S(=O)(=O)N3CCC(C(=O)NC4CCCCC4C)CC3)cc2CC1C (stereo unspecified) returned LANA-H2B inh -0.9, Bfl-1 A1 inh 0.5, E coli growth 0.714, UCH37 DUB inh -0.1, B2AR ag 1.1 and HNF4A DNA FP 15.5.
For Cc1cccc(Nc2nc(-c3ccc(F)cc3)cs2)n1 the results were LANA-H2B inh 0.4, Bfl-1 A1 inh -3.8, E coli growth 0.588, UCH37 DUB inh 3.1, B2AR ag 5.7 and HNF4A DNA FP 0.6.
COc1ccc(OC)c(N/C(N)=N/c2nc(C)cc(C)n2)c1 was read as LANA-H2B inh -0.1, Bfl-1 A1 inh -0.4, E coli growth 0.716, Vif A3G -3.8%, UCH37 DUB inh 1.5, B2AR ag -7.5 and HNF4A DNA FP -3.8.
`O=C(Nc1ccc(Br)cc1F)c1cccnc1` gave LANA-H2B inh -6.3, Bfl-1 A1 inh -0.4, E coli growth 0.663, Vif A3G 20.2%, UCH37 DUB inh 0.1, B2AR ag -0.8 and HNF4A DNA FP -2.5.
`Cc1ccc(NC(=O)c2csnn2)c(C)c1` gave LANA-H2B inh -2.8, Bfl-1 A1 inh 0.9, E coli growth 0.664, Vif A3G -8.3%, UCH37 DUB inh -0.5, B2AR ag -4.0 and HNF4A DNA FP -0.5.
For Cc1ccc(C2=NN(C(=O)CN3CCN(C4CCS(=O)(=O)C4)CC3)C(c3ccco3)C2)cc1 (stereo unspecified) the results were LANA-H2B inh -4.0, Bfl-1 A1 inh -0.1, E coli growth 0.701, Vif A3G -14.1%, UCH37 DUB inh 4.8, B2AR ag 1.5 and HNF4A DNA FP 5.6.
For COc1ccc(S(=O)(=O)N(CC(C)C)C2CCS(=O)(=O)C2)cc1OC (stereo unspecified) the results were LANA-H2B inh -2.8, Bfl-1 A1 inh -2.0, E coli growth 0.643, Vif A3G -1.6%, UCH37 DUB inh -0.7, B2AR ag 1.7 and HNF4A DNA FP 1.4.
